StopGo FLuc: FMDV 2A StopGo reporter, firefly signal | HEK cells with a luciferase reporter of 2A StopGo recoding | Potency, µM (doses to about 57.5 µM), for the others: at the highest dose signal change, negative = less light | actives 0.23% (n = 120,000) | AID 1745856; active = well fitted falling curve with a large enough effect; inconclusive = small, poorly fitted or top-dose-only effect; inactive = no such curve, though single readings can be large or run the other way; note: nearly all actives have a fitted effect of over 60% in size; overnight with compound
StopGo RLuc: lowers the Renilla signal of an FMDV 2A StopGo reporter | actives 0.32% (n = 120,000) | HEK cells with a luciferase reporter of 2A StopGo recoding | Potency, µM (series often up to 57.5 µM), without a hit: at the top dose signal change, negative = less light; active means well fitted falling curve with a large enough effect; inconclusive means small, poorly fitted or top-dose-only effect; inactive means no such curve, though single readings can be large or run the other way; note: nearly all actives have a fitted effect of over 55% in size; overnight with compound
Active calls of the source: *; ? = inconclusive; & = joins results of further samples; [ ] = another dose, or the depositor's remark. % is set by controls: 0 for no effect and ±100 for the full control effect; potency is the fitted concentration of half-maximal effect. These rows are one share of the data, so the mix of outcomes need not match the whole.

SMILES	StopGo FLuc	StopGo RLuc
O=C(Nc1ccc(Br)cc1)C1CCCCC1	72%[activator]	7%
N#Cc1ccc(/C=N/Nc2ccc(S(=O)(=O)Nc3cccc(Cl)c3)cc2[N+](=O)[O-])cc1	-10%	18%[1.06 µM]
COc1ccc2cc(C(=O)N3CCN(Cc4ccccc4C)CC3)c(C)nc2c1	-10%	-14%
CCn1nc(C(=O)OCC(=O)Nc2ccccc2Oc2ccccc2)c2ccccc2c1=O	10%	0%
Cc1ccc(C(=O)Nc2ccc(-c3nc4ccccc4o3)cc2)cc1	52%[activator]	-10%
O=C(CN(c1ccc(F)c(Cl)c1)S(=O)(=O)c1ccccc1)NCc1ccncc1	-8%	40%[activator]
COc1cccc(CC(=O)Nc2ccccc2-c2ccccc2)c1	36%[activator]	27%
O=C(CSc1n[nH]c(-c2ccccc2Cl)n1)N1CCN(c2ccc(F)cc2)CC1	-23%	-17%
O=C(O)/C=C/c1cc(Br)c(-c2ccc(Cl)cc2Cl)o1	59%[activator]	-3%
CNC(=O)c1ccc(CN(Cc2ccco2)C(=O)c2cc3ccc(C)cc3[nH]2)cc1	102%[activator]	6%
Cc1cc(C)c(NC(=O)c2cc3ccccc3oc2=O)c(C)c1	14%	31%[activator]
Cc1ccccc1NC(=O)Cn1c(=O)n(Cc2ccco2)c(=O)c2cccnc21	16%	5%
COc1ccc(NC(=O)CC2C(=O)N(c3ccc(F)cc3)C(=O)N2CCc2sccc2C)cc1 (centres undefined)	-13%	118%[activator]
Cc1oc(-c2ccccc2)nc1C(=O)Nc1ccc(S(=O)(=O)N2CCCC2)cc1	-13%	-3%
COc1ccc(-n2cc3c(c2-c2ccccc2F)c(=O)n(C)c(=O)n3C)cc1	-14%	0%
Cc1ccc(NC(=O)COC(=O)c2cccc(O)c2)c(Br)c1	146%[activator]	-7%
CCOc1ccccc1CNC(=O)CCC(=O)N1CCSc2ccccc21	0%	-8%
CC(C)C(NC(=O)CCc1ccccc1)C(=O)O (centres undefined)	4%	-4%
O=C(Nc1ccccc1Cl)Nc1c(N2CCCC2)c2ccccc2oc1=O	-11%	45%[activator]
Cc1cc2c(n1-c1ccc(C(=O)NCCc3ccccc3)cc1)CCC(C)C2 (centres undefined)	95%[activator]	-9%
Cc1cccc(C)c1OCC(=O)Nc1c(C(=O)c2ccc(Br)cc2)oc2ccccc12	-18%	1%
CCCCN(Cc1ccccc1)S(=O)(=O)c1cc(Br)cc2c1N(C(C)=O)CC2	11%	34%[activator]
COCCN1C(=O)c2ccccc2C(C(=O)Nc2ccc(NC(C)=O)cc2)C12CCCC2 (centres undefined)	1%	4%
COc1ccc(OC)c(S(=O)(=O)Nc2ccc(-c3cn4ccc(C)nc4n3)cc2)c1	4%	105%[activator]
COc1ccc(/C=C/C(=O)c2ccc(OC(C)C(=O)O)cc2)cc1O (centres undefined)	16%	26%
The list continues:
SMILES	StopGo FLuc	StopGo RLuc
COc1ccc(NC(=O)C(=O)c2c(C)[nH]c3ccccc23)cc1OC	23%	48%[activator]
CCC(C(=O)Nc1nc2ccc(C)cc2s1)c1ccccc1 (centres undefined)	120%[activator]	11%
CCCCCN(CCCCC)C(=S)Nc1cccc(Cl)c1	-13%	-29%
NNC(=O)CCSCc1ccc(Cl)cc1	17%	-10%[1.06 µM]
COc1ccc(-c2cc(C(=O)Nc3ccc4c(c3)OCO4)no2)cc1	0%	-9%
COc1ccc(-c2nnc(SCc3cc(-c4cccs4)on3)o2)cc1	7%	-5%
CCCOc1cccc(-c2cc(C(=O)NCCCN3CCOCC3)c3ccccc3n2)c1	-8%	-4%
Cc1c(C(=O)N(CC#N)C2CC2)sc2ccccc12	-2%	15%
CCC(C)c1ccc(NC(=S)Nc2ccc(N(CC)CC)cc2)cc1 (centres undefined)	0%	4%
CC(NC(=O)c1n[nH]c(=O)c2ccccc12)c1ccc(F)c(F)c1 (centres undefined)	0%	16%
CCCCC(=O)Nc1ccc2nc(SCC(=O)N3CCc4ccccc43)sc2c1	8%	-1%
O=C(CSc1cn(CC(=O)N2CCCC2)c2ccccc12)Nc1ccc(Cl)cc1	-10%	?
COc1cc(OC)cc(OCC(=O)NC2CCCCCC2)c1	15%	61%[activator]
c1ccc(Nc2c(-c3ccccc3)nc3ncccn23)cc1	-20%	-12%
Cc1c(C(=O)C(=O)Nc2ccc(F)cc2)c2ccccc2n1C	19%	33%[activator]
CCOC(=O)c1c(C)[nH]c(C(=O)Nc2cccc(S(=O)(=O)N(C)C)c2)c1C	80%[activator]	140%[activator]
CC(Oc1ccccc1)C(=O)OCc1cc(=O)n2ccsc2n1 (centres undefined)	6%	-3%
Cc1nc(-c2ccc(F)cc2)sc1C(=O)N[C@H](C(=O)O)C(C)C	23%	24%
CN(C)CCSc1ccc2c(c1)OCCCO2	15%	-3%
CCOc1ccc(CCNC(=O)c2ccc3c(c2)N(Cc2ccc(F)cc2)CCS3)cc1	5%	12%
Cc1ccc(C(=O)N2CCN(C)CC2)cc1S(=O)(=O)N1CCCCC1	0%	5%
Cc1ccc(CN2CCCn3nc(C(=O)NCCc4ccccc4C)cc3C2=O)cc1	6%	-3%
Cc1c(C(=O)Nc2cccc(C#N)c2)sc2nc3n(c(=O)c12)CCCCC3	83%[activator]	-4%
O=C(CSc1ccccc1C(=O)Nc1ccc2[nH]c(=O)[nH]c2c1)NCc1ccco1	0%	14%
CC(OC(=O)Cc1n[nH]c(=O)c2ccccc12)C(=O)NCc1ccccc1 (centres undefined)	5%	-6%

Pulled by structure from the list above:
SMILES	StopGo FLuc	StopGo RLuc
Cc1cc2c(n1-c1ccc(C(=O)NCCc3ccccc3)cc1)CCC(C)C2 (centres undefined)	95%[activator]	-9%
COc1cc(OC)cc(OCC(=O)NC2CCCCCC2)c1	15%	61%[activator]
CCCOc1cccc(-c2cc(C(=O)NCCCN3CCOCC3)c3ccccc3n2)c1	-8%	-4%
Cc1ccc(NC(=O)COC(=O)c2cccc(O)c2)c(Br)c1	146%[activator]	-7%
Cc1ccc(C(=O)N2CCN(C)CC2)cc1S(=O)(=O)N1CCCCC1	0%	5%
O=C(CSc1cn(CC(=O)N2CCCC2)c2ccccc12)Nc1ccc(Cl)cc1	-10%	?

Carrying on:
SMILES	StopGo FLuc	StopGo RLuc
COc1ccc(S(=O)(=O)N2CCC3(CC2)N=C(c2cccs2)C(=O)N3)cc1	4%	5%
CCOC(=O)c1cc(CC)sc1NC(=O)Cn1nnc(-c2ccc(C)cc2)n1	-2%	-3%
COc1ccccc1N1CCN(C(=O)Cn2cnc3onc(-c4ccc(F)cc4)c3c2=O)CC1	-6%	-13%
Cc1c(C=O)c(C=O)c(C)n1-c1ccc(F)cc1	-1%	-24%
COc1ccc(OC)c(-c2csc(NC(=O)c3n[nH]c(=O)c4ccccc34)n2)c1	-1%	-5%
CC(C)C(=O)Nc1ccc(CNC(=O)C2CCC(C(C)(C)C)CC2)cc1 (centres undefined)	3%	-6%[1.06 µM]
Cc1ccc(/C=C/c2onc(C)c2S(=O)(=O)N2CCC(C(=O)NCC(C)c3ccccc3)CC2)cc1 (centres undefined)	-15%	-10%
COc1ccc(-c2c(C)c3ccc(OC(=O)N4CCOCC4)cc3oc2=O)cc1	12%	0%
COc1cc(OC)cc(C(=O)Nc2c(NCc3ccccc3)c3ccccc3oc2=O)c1	-17%	-8%
O=C(NC1CC1)c1ccccc1NS(=O)(=O)c1ccc(Cl)cc1C(F)(F)F	-1%	0%
CC(=O)Nc1nc2ccc(CCC(=O)NCc3ccc(Cl)cc3)cc2s1	12%	87%[activator]
O=C(/C(Cl)=C/Nc1ccccn1)C(F)(F)F	?	?
CSc1cccc(N2CC(C(=O)O)CC2=O)c1 (centres undefined)	-1%	-15%
Cc1cccc(C)c1NC(=O)NC(=O)c1ccc(Cl)cc1	23%	6%
COc1ccc(NC(C)=O)cc1NC(=O)/C=C/c1nc2ccccc2o1	2%	-15%
CCCCCCCCCCOc1cc2c(=O)c(C(=O)OCC)c[nH]c2cc1OCC	-14%[5.23 µM]	-7%[5.77 µM]
COc1ccc(CNC(=O)c2ccc3c(c2)N(C)C(=O)C2CCCCN32)cc1OC (centres undefined)	0%	33%[activator]
COc1ccc(-c2cn3c(n2)sc2cc(C(=O)Nc4ccc(F)cc4)ccc23)cc1	83%[activator]	7%
COc1ccc(C(=O)Nc2ccc(S(=O)(=O)Nc3cc(C)nc(C)n3)cc2)cc1	9%	28%
CC(=O)N1CCc2cc(C(=O)Nc3nc4ccccc4[nH]3)ccc21	-59%	10%
O=C(c1cccc(S(=O)(=O)N2CCOCC2)c1)N(Cc1ccco1)C1CCS(=O)(=O)C1 (centres undefined)	-6%	-7%
BrC(/C=N/N(c1ccccc1)c1ccccc1)=C/c1ccccc1	12%	13%
CC(CNS(=O)(=O)c1ccc2c(c1)CC(=O)N2C)c1ccccc1 (centres undefined)	-12%	27%
Cc1ccc(NC(=O)C2CCCN(c3ncnc4onc(C)c34)C2)cc1Cl (centres undefined)	9%	4%
O=C(Nc1ccc(I)cc1C(F)(F)F)c1ccc2ccccc2c1	51%[activator]	15%
Additional results
SMILES	StopGo FLuc	StopGo RLuc
Cc1c(C=O)c2ccccc2n1C	-7%	-4%
COc1ccccc1CCNS(=O)(=O)c1ccc(N2CCCCS2(=O)=O)cc1	-16%	179%[activator]
O=C1CC(c2ccccc2)Sc2ccccc2N1Cc1ccccc1F (centres undefined)	0%	113%[activator]
CN(C)CCNc1oc(-c2ccc(COc3ccc(Cl)cc3)o2)nc1C#N	22%	-14%
COc1ccc(Cn2ccc3nc(C)c(C(=O)N4CCN(c5ccccc5F)CC4)cc3c2=O)cc1	-11%	15%
CC(Sc1nnc(N2CCCCC2)n1-c1ccccc1)c1nnc(-c2cccs2)o1 (centres undefined)	13%	43%[activator]
O=C1CCCc2nccc(-c3ccccc3)c21	197%[activator]	9%
S=c1sc2c(s1)SC1c3ccccc3CC1S2 (centres undefined)	-2%	-17%
CCc1ccccc1NC(=O)c1ccc2c(O)c(S(=O)(=O)c3ccccc3)c(=O)[nH]c2c1	22%	14%
CCn1c(=O)c2cc(C(=O)N(CCCOC(C)C)Cc3ccco3)sc2c2ccccc21	0%	14%
CC(=O)c1cccc(Nc2nc(-c3ccccc3Cl)nc3ccccc23)c1	13%&-19%	19%&22%
Nc1nc(Nc2ccc(F)cc2)nc(-c2cc3ccccc3o2)n1	230%[activator]	0%
CSc1ccc(-c2noc(C3CCCN(S(=O)(=O)c4cccs4)C3)n2)cc1 (centres undefined)	6%	1%
COc1ccc(N2CCN(C(=O)c3c(C)oc4nc(C)nc(N5CCCC5)c34)CC2)cc1	-8%	10%
COc1ccc(N2C(=O)C(CC(=O)Nc3ccc(F)cc3)N(Cc3ccc4c(c3)OCO4)C2=O)cc1 (centres undefined)	-18%	228%[activator]
COC(=O)c1ccc(COC(=O)COc2ccc(Cl)cc2C)cc1	94%[activator]	4%
CN(CC(=O)Nc1ccccc1Cl)C(=O)CSc1ncnc2scc(-c3ccccc3)c12	-16%	-8%
N#C/C(=C/c1ccc(OC(F)F)cc1)C(=O)Nc1cc(C(F)(F)F)ccc1Cl	?	?
CCc1cccc(NC(=O)c2ccc(NC(=O)N3CCSc4ncccc43)cc2)c1	72%[activator]	-8%
O=C(CN1C(=O)NC2(CCCC2)C1=O)Nc1cnc2ccccc2c1	43%[activator]	-12%
CCn1nc(C)c2c(-c3ccccc3)cc(OC(C)C(=O)Nc3ccc(C(C)=O)cc3)nc21 (centres undefined)	31%[activator]	0%
O=C(CN1CCN(C(=O)CCc2ncc(-c3ccc(F)cc3F)o2)CC1)Nc1ccccc1Cl	?	?
CCN1CCC2(CC1)N=C(SCC(=O)Nc1ccc(F)c(Cl)c1)C(c1ccccc1)=N2	-16%	-23%
CCOC(=O)c1c(N)n(-c2ccccc2CC)c2nc3ccccc3nc12	-7%	1%
O=c1c2c(nc3nc(NCc4c(Cl)cccc4Cl)[nH]n13)CCC2	7%	-13%

Rewritten as labelled records: 2 of the compounds above.
SMILES: O=C(Nc1ccc(I)cc1C(F)(F)F)c1ccc2ccccc2c1
  StopGo FLuc: 51%[activator]
  StopGo RLuc: 15%
SMILES: Cc1c(C=O)c2ccccc2n1C
  StopGo FLuc: -7%
  StopGo RLuc: -4%

Whole records as entered above. Order of screens: StopGo FLuc | StopGo RLuc
Record of O=C(CN1CCN(C(=O)CCc2ncc(-c3ccc(F)cc3F)o2)CC1)Nc1ccccc1Cl : ? | ?
Record of CCc1cccc(NC(=O)c2ccc(NC(=O)N3CCSc4ncccc43)cc2)c1 : 72%[activator] | -8%

Later entries
SMILES	StopGo FLuc	StopGo RLuc
CC1=C(C(=O)Nc2cccnc2)C(c2ccccc2)n2nc(SCc3ccccc3Cl)nc2N1 (centres undefined)	-9%	-10%
CCOc1ccc(-c2nonc2NC(=O)c2ccco2)cc1OCC	35%	22%
COc1ccc(-c2nc(C#N)c(NC3CC3)o2)cc1	221%[activator]	18%
COc1ccc(S(=O)(=O)NCCc2cn3ccsc3n2)cc1OC	-1%	190%[activator]
CCCCn1c(=O)c(CCc2ccccc2)nc2c1c(=O)[nH]c(=O)n2Cc1ccccc1	-5%	-3%
COc1ccc(-c2nc(CNC(=O)Nc3ccccc3)c(C)o2)cc1	0%	0%
O=C(COc1ncnc2c(Cl)cc(Cl)cc12)Nc1cc(F)ccc1F	-8%	1%
CC1CCN(C(=O)c2[nH]cnc2C(=O)NCC(C)(C)C)CC1	12%	3%
CN(C)/C=C\C(=O)c1cccs1	53%[activator]	-12%[1.06 µM]
CCOc1ccccc1C(C)N (centres undefined)	-3%	-14%
CC(Sc1n[nH]c(-c2cccs2)n1)C(=O)Nc1cccc(Cl)c1Cl (centres undefined)	6%	?
CCCOc1cc(C)c(Cl)cc1S(=O)(=O)Nc1cccnc1	-4%	71%[activator]
CC(C)c1ncncc1C(=O)NCCNc1cnccn1	-8%	4%

Source: PubChem
